# Screening data (PubChem)
# NPYLR7 agonist – activates Aedes aegypti NPYLR7 receptor; HEK293T NPYLR7/Galpha15, GCaMP6s calcium fluorescence; activation, % at 10 µM; actives 0.15% (n = 270,000); in the data active means activation above about 40%;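 further: 0% = vehicle and 100% = reference agonist at the receptor; some compounds past the cut are filed as inactive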
# NPYLR7 agonist max-min – further read-out of NPYLR7 agonist, marked with its call; activation, %; measured here: Max-Min RFU normalised activation; some inactives read as strong as hits;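 span of the calcium signal over five minutes; 0% = vehicle and 100% = native peptide agonist; compound fluorescence can raise it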
# * = called active by the depositor; & = joins results of further samples. The list is partial; the hit share may differ from the screen's.
SMILES,NPYLR7 agonist,NPYLR7 agonist max-min
CC(C)C(Nc1cnc2cc(F)c(F)cc2n1)C(=O)N1CCOCC1 (centres undefined),1,-1
CNC(=O)c1ccc(CNCc2ccccc2N2CCN(C(C)=O)CC2)cc1,4,2
O=C(CNC(c1ccccc1)c1ccccc1)NC(=O)NC1CCCC1,1,-1
COCCn1ccc2c(nnc3c(-c4ccc(F)cc4)c(COC)nn32)c1=O,19,17
COc1cccc(NC(=O)N(CCN2CCCC2)CC(=O)N(CCc2ccc(OC)c(OC)c2)Cc2sccc2C)c1,10,17
O=C(NCC(=O)N1CCC2(CC1)NCCNC2=O)c1ccccc1,8,7
Cc1ccccc1CCC1CCCN(Cc2nnc(-c3cccnc3)o2)C1 (centres undefined),0,-8
COc1ccc(S(=O)(=O)Oc2cccc(CN(Cc3ccco3)C(=O)c3cccs3)c2)cc1,1,2
O=C1CN(C(=O)c2occc2Br)c2ncccc2N1,4,1
CCOC(=O)c1nn(-c2ccc(C)cc2)c(=O)cc1OS(=O)(=O)c1ccc(C)c(C)c1,-2,4
O=c1[nH]c(CSc2cccc[n+]2[O-])nc2sc3c(c12)CCC3,1,-1
Cc1ccc(N(CCC#N)C(=O)c2ccc[nH]2)cc1C,-6,-6
CCOc1ccc(-c2cc3c(=O)n(CC(=O)NCc4ccc(F)cc4)ccn3n2)cc1,8,7
COc1ccc(OCc2cc(C(=O)NCc3ccncc3C)n[nH]2)c(Cl)c1,20,9
CC(=O)N1CCC(N2CCOC(CC(c3ccccc3)c3ccccc3)C2)CC1 (centres undefined),11,6
O=C1CCC(C(=O)N2CCC(Cn3ccnc3)CC2)CN1Cc1cccc(C(F)(F)F)c1 (centres undefined),3,-1
CCOc1cccc(/C=C2/NC(=S)NC2=O)c1O,3,15
Cc1cc(Cn2cnc3scc(-c4ccc(C)s4)c3c2=O)no1,1,7
CN(C)CCCN1C(=O)C(O)=C(C(=O)c2cccs2)C1c1ccc(Cl)cc1 (centres undefined),5,3
Cn1c(CN2CCN(CC#N)CC2)c(C#N)c2ccccc21,2,-2
Cc1cc(C(F)(F)F)nc(CCn2ccnc2-c2ccc(-n3ccnc3)cc2)n1,0,0
Cc1cc(C)c2sc(N(CCN(C)C)C(=O)CCCS(=O)(=O)c3ccc(F)cc3)nc2c1,8,7
COc1ccc(-n2nc(C(=O)NC(C)c3ccccc3)c(=O)n(Cc3cccc(Cl)c3)c2=O)cc1 (centres undefined),17,18
CCC(c1nc2ccccc2c(=O)n1-c1ccc(Br)cc1)N(CCc1ccccc1)C(=O)Nc1cccc(OC)c1 (centres undefined),1,-7
COC(=O)c1cc2n(n1)CCCN(C(=O)c1c(C)[nH]c(C(C)=O)c1C)C2,-10,-13
Cc1cc(N2CCOCC2)n2nc(C(F)(F)F)c(-c3ccccc3)c2n1,5,3
Cc1ccc(-c2cnn3c(NCCOCCO)cc(C)nc23)cc1,5,3
CCOc1ccc(OCCNC(=O)CN2CCOCC2)cc1,19,18
Cc1oc(-c2cc3c(cc2Cl)OCO3)nc1CN(C)Cc1ccc(C(F)(F)F)cc1,3&2,9&-4
Cc1cccc(C(=O)N2CCC3(CCCN(CCCc4ccccc4)C3=O)C2)n1 (centres undefined),5,0
C(#Cc1ccc(C#CCN2CCCC2)cc1)CN1CCCC1,1,-3
O=C(CSc1ccc(-c2ccc(-n3cccn3)cc2)nn1)NCC1CCCO1 (centres undefined),-2,-6
CN(C)CCNC(=O)c1coc(CN(Cc2ccc3c(c2)OCO3)Cc2ccc(F)cc2F)n1,11,31
O=C(c1csc(-c2cccs2)n1)N1CCCC(Nc2ccccc2)C1 (centres undefined),1,-3
Cn1ncc2c(Nc3ccc(Cl)cc3)nc(NCCN3CCOCC3)nc21,8,4
CSc1nsc(SCc2csc(Cc3ccc(C)cc3)n2)n1,25,32
CCc1ccc(S(=O)(=O)NCc2nnnn2-c2ccccc2)s1,1,0
CCOc1ccc(C(C2Sc3nc(C)nn3C2=O)N2CCC3(CC2)OCCO3)cc1OC (centres undefined),-2,-3
Cc1ccccc1NC(=O)NCCNc1nc(-c2cccs2)nc2cc(Cl)ccc12,13,8
CCCC(C)(C)NC(=O)C(C)n1c(-c2cccs2)n[nH]c1=S (centres undefined),7,3
Cc1ccc(NC(=O)CSc2nc(=O)n(Cc3ccncc3)c3c2CCCC3)cc1F,-1,-2
CCCc1ncncc1C(=O)N1CCN(C)C(C(=O)O)C1 (centres undefined),23,8
CC(C)Oc1c(Cl)cccc1NC(=O)C1CC1c1cccnc1 (centres undefined),-4,-3
COc1ccc(-c2ccc(OCCNS(=O)(=O)c3cc(C)c(OC)cc3C)nn2)cc1,-8,-16
Cc1cn(Cc2cccc(C(=O)N3CCOCC3)c2)c(=NC(=O)c2ccco2)s1,1,-3
CCOC(=O)Cc1ccc(Br)c(F)c1,3,2
CCCN(CC1CC1)C(=O)CSc1n[nH]c(=O)n1CC,-2,3
CC(NC(=O)c1cc(C2CC2)on1)c1cc(Cl)ccc1Cl (centres undefined),2,0
COc1ccc(C(=O)N2CCC(n3c(=O)oc4ccc(F)cc43)CC2)cc1OC,22,24
CC(Cn1ccnc1)NC(=O)Cc1ccc(Br)s1 (centres undefined),-18,-19
CCC(CC)C(=O)NCCNc1ccc(Nc2cccc(C)n2)nn1,12,4
CN(Cc1cc(C(C)(C)C)n[nH]1)C1CCCNC1 (centres undefined),8,8
O=C1CC(C(F)(F)F)N(C(=O)COc2cccc(Br)c2)CCN1 (centres undefined),-3,-4
Cc1cc(Cn2cnc3sccc3c2=O)no1,11,10
Cn1cc(C(=O)NC2CCN(C3CCN(c4ccccc4F)C3=O)CC2)cn1 (centres undefined),2,-2
CN(CCO)CC(=O)NC1C2CC3CC(C2)CC1C3 (centres undefined),4,9
CC(=O)NCCNC(=O)c1nnc2n1CCN(C(=O)c1cc(C)on1)C2,7,3
Cc1c2c(n(Cc3cccc(F)c3)c1C(=O)Nc1cccc(F)c1)CCCC2,21,17
COc1cc(NC(=O)N(C)Cc2ccccc2Cl)cc(OC)c1,-2,-5
CC(C)(C)OC(=O)N1CCCCC1C(=O)NC1CCS(=O)(=O)C1 (centres undefined),2,13

# A draw from above in order of SMILES length, rising:
SMILES,NPYLR7 agonist,NPYLR7 agonist max-min
CN(Cc1cc(C(C)(C)C)n[nH]1)C1CCCNC1 (centres undefined),8,8
CC(C)(C)OC(=O)N1CCCCC1C(=O)NC1CCS(=O)(=O)C1 (centres undefined),2,13
Cc1c2c(n(Cc3cccc(F)c3)c1C(=O)Nc1cccc(F)c1)CCCC2,21,17
Cc1ccc(NC(=O)CSc2nc(=O)n(Cc3ccncc3)c3c2CCCC3)cc1F,-1,-2

# (further entries)
SMILES,NPYLR7 agonist,NPYLR7 agonist max-min
CCn1ccnc1CN1CCCC(CCC(=O)NCc2ccc(OC)cc2OC)C1 (centres undefined),6,0
CCOC(=O)N1CCN(C2CCCN(C(=O)Cn3cnnn3)C2)CC1 (centres undefined),0,-1
CCC1CN(C(=O)CN(Cc2cscn2)c2ccccc2)CCO1 (centres undefined),-9,-8
Cc1noc(C)c1CN1CCN(C(=O)NC(C)c2ccc(F)cc2)CC1 (centres undefined),1,1
Cc1cnccc1CN(C)C(=O)C1(c2cccs2)CC1(C)C (centres undefined),2,-1
O=C(CN1CCNCC1)N1CCCCC1,3,5
COCc1nc(-c2ccccc2)nc(N2CCN(C(=O)c3cccs3)CC2)c1Cc1ccccc1F,30,19
CC1CCCCN1C(C)CNC(=O)NCCCn1cncn1 (centres undefined),6,4
CCOCCCN(CC(=O)N(Cc1ccccc1)Cc1sccc1C)C(=O)COc1ccc(Cl)cc1,-4,-2
CC(=O)Nc1c(I)c(C(=O)N[C@H]2C(O)O[C@H](CO)[C@@H](O)[C@@H]2O)c(I)c(N(C)C(C)=O)c1I (some centres undefined),-3,-6
COc1cccc(Cn2ccnc2CN(CC2CCCO2)S(=O)(=O)c2ccc(C)cc2)c1 (centres undefined),10,12
O=C(NCCCn1ncccc1=O)c1cccc(C(F)(F)F)c1,-8,-14
COCCn1cc(NC(=O)NCc2ccc(C)cc2)c2ccccc21,14,7
Cc1nc(C)c(-c2ccc(SCC(=O)NCc3ccccc3)nn2)s1,25,11
CCN(CC)Cc1cnc2c(C(=O)N3CCCC3c3nc(C)no3)cnn2c1 (centres undefined),19,12
COc1cc(C(=O)OCc2ccccc2F)cc(OC)c1Br,-8,-11
Cc1ccc(CN2CCN(Cc3cccc4ncccc34)CC2=O)cc1,27,22
CCCCCCNC(=O)/C(C#N)=C1\N=C(NC(=O)c2ccccc2)c2ccccc21,7,2
Nc1ccc2oc(-c3cccc(I)c3)nc2c1,-1,-2
O=C(c1ccc2nccnc2c1)N1CCCC(N2CCc3ccccc3C2)C1 (centres undefined),13,7
Cc1cc(NC(=O)C2Cc3ccccc3O2)ccc1-n1cnnn1 (centres undefined),7,2
CCCc1cc(NC)n2nc(C)c(-c3ccccc3)c2n1,3,6
N#Cc1ccc(C(=O)N2CCN(Cc3ccncc3)CC2)cc1,11,6
COc1ccc(-n2nc(C(=O)c3ccco3)cc(NC(C)=O)c2=O)cc1,3,2
CCCCc1ccc(C2C3CCCC=C3C(C#N)C(=N)C2(C#N)C#N)s1 (centres undefined),14,9
CS(=O)(=O)N1CCC(NC(=O)CC2C(=O)NCCN2Cc2ccccc2)CC1 (centres undefined),-2,-3
COCc1c(Br)c(C)nc(OCC(=O)N/N=C\c2ccc(O)cc2O)c1C#N,-8,-16
CC(c1cccc(O)c1)N(C)Cc1nnc(-c2cccc(C#N)c2)o1 (centres undefined),1,5
NS(=O)(=O)c1ccc(CCNC(=O)C(=O)NCC2OCCN2C(=O)c2cccs2)cc1 (centres undefined),-7,-1
Cc1nnc(CSc2nnc(-c3ccccc3)n2C)o1,20,10
COc1cccc(Oc2cc(C(F)(F)F)nc(SCc3cccc(Cl)c3)n2)c1,2,9
CC(OC(=O)CCC(=O)N1CCC(c2ccccc2)=N1)C(=O)Nc1ccc2[nH]c(=O)[nH]c2c1 (centres undefined),4,5
CCCCN(C=O)c1c(CC)nc2ccc(C(=O)N(C)Cc3ccccc3)cn12,5,-2
CC(C)C(C)NC(=O)c1ccc(Br)c(S(C)(=O)=O)c1 (centres undefined),1&2,0&1

# Part of the list above, tab-delimited:
SMILES	NPYLR7 agonist	NPYLR7 agonist max-min
CC(=O)Nc1c(I)c(C(=O)N[C@H]2C(O)O[C@H](CO)[C@@H](O)[C@@H]2O)c(I)c(N(C)C(C)=O)c1I (some centres undefined)	-3	-6
COc1cccc(Cn2ccnc2CN(CC2CCCO2)S(=O)(=O)c2ccc(C)cc2)c1 (centres undefined)	10	12
O=C(NCCCn1ncccc1=O)c1cccc(C(F)(F)F)c1	-8	-14
COCCn1cc(NC(=O)NCc2ccc(C)cc2)c2ccccc21	14	7
Cc1nc(C)c(-c2ccc(SCC(=O)NCc3ccccc3)nn2)s1	25	11
CCN(CC)Cc1cnc2c(C(=O)N3CCCC3c3nc(C)no3)cnn2c1 (centres undefined)	19	12
COc1cc(C(=O)OCc2ccccc2F)cc(OC)c1Br	-8	-11
Cc1ccc(CN2CCN(Cc3cccc4ncccc34)CC2=O)cc1	27	22
CCCCCCNC(=O)/C(C#N)=C1\N=C(NC(=O)c2ccccc2)c2ccccc21	7	2
Nc1ccc2oc(-c3cccc(I)c3)nc2c1	-1	-2
O=C(c1ccc2nccnc2c1)N1CCCC(N2CCc3ccccc3C2)C1 (centres undefined)	13	7
Cc1cc(NC(=O)C2Cc3ccccc3O2)ccc1-n1cnnn1 (centres undefined)	7	2
CCCc1cc(NC)n2nc(C)c(-c3ccccc3)c2n1	3	6
N#Cc1ccc(C(=O)N2CCN(Cc3ccncc3)CC2)cc1	11	6
COc1ccc(-n2nc(C(=O)c3ccco3)cc(NC(C)=O)c2=O)cc1	3	2
CCCCc1ccc(C2C3CCCC=C3C(C#N)C(=N)C2(C#N)C#N)s1 (centres undefined)	14	9
CS(=O)(=O)N1CCC(NC(=O)CC2C(=O)NCCN2Cc2ccccc2)CC1 (centres undefined)	-2	-3
COCc1c(Br)c(C)nc(OCC(=O)N/N=C\c2ccc(O)cc2O)c1C#N	-8	-16
CC(c1cccc(O)c1)N(C)Cc1nnc(-c2cccc(C#N)c2)o1 (centres undefined)	1	5
NS(=O)(=O)c1ccc(CCNC(=O)C(=O)NCC2OCCN2C(=O)c2cccs2)cc1 (centres undefined)	-7	-1
Cc1nnc(CSc2nnc(-c3ccccc3)n2C)o1	20	10
COc1cccc(Oc2cc(C(F)(F)F)nc(SCc3cccc(Cl)c3)n2)c1	2	9
